Screens deposited in PubChem BioAssay by National Center for Advancing Translational Sciences (NCATS).
VDR inh: vitamin D3 receptor (human) inhibition | P11473 | VDR-SRC2-3 peptide fluorescence polarization, 2 h | Potency, µM, for the others: max response, negative = inhibition, hits mostly inhibitors | actives 0.93% (n = 400,000); active = well fitted inhibition curve with a large enough effect; inconclusive = small, poorly fitted or top-dose-only effect, or another doubt; inactive = no such curve, though single readings can be large or run the other way; also: series mostly up to about 120 µM
Target sequence (P11473 whole entry, looked up): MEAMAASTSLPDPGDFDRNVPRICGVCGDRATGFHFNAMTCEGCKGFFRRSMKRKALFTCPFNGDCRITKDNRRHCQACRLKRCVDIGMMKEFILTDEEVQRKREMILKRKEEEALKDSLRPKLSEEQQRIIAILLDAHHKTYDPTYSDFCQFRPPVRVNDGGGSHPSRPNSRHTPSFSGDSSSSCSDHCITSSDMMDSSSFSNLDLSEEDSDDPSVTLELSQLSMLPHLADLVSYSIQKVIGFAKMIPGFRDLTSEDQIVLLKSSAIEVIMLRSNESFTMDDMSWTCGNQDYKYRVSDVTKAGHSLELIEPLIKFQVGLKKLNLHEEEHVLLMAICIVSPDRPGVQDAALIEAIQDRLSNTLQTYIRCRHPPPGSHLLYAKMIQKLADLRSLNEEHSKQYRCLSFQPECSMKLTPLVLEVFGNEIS
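FP read-out; VDR + SRC2-3 coactivator peptide; 23 nl compound by pintool; 2 h RT incubation; reagents held at 4 deg C, protected from light.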
Active calls of the source: *; ? = inconclusive; & = joins results of further samples; ! = repeats disagree. % is scaled to controls: 0 for no effect and ±100 for the full control effect; potency is read from the fitted curve at half-maximal effect. Only part of the results is shown. The share of hits here may be higher or lower than overall.

SMILES | VDR inh
CCOC(=O)c1ccc2[nH]c(-c3ccc(S(=O)(=O)F)cc3)cc(=O)c2c1 | 2%
CCCCn1c(O)c(C(C)=NCc2ccc3c(c2)OCO3)c(=O)[nH]c1=O | -11%
O=c1[nH]c(=O)n(-c2cccc(Cl)c2)c(O)c1C=NCCCN1CCOCC1 | 5%
C=CCn1c(O)c(/C=N/N2CCCCC2)c(=O)[nH]c1=O | -10%
CCN(CC)c1ccc(N=Cc2c(O)n(CCC3=CCCCC3)c(=O)[nH]c2=O)cc1 | -11%
C=CC(=O)OCCO | -1%
COc1ccc(OC)c(CC(=O)O)c1 | -4%
CCOc1ccc(N=Cc2c(O)n(Cc3ccccc3)c(=S)[nH]c2=O)cc1 | -11%
O=C(c1ccncc1)C12CN3CN(CN(C3)C1)C2 | 10%
Cc1ccc(S(=O)(=O)N2CCN(C(=O)COC(=O)Cc3ccccc3)CC2)c(C)c1 | -7%
COc1ccc(-n2nc(C(=O)NCC(=O)N3CCC4(CC3)OCCO4)c3ccccc3c2=O)cc1 | 2%
Cc1cccc(Cn2cccc(C(=O)Nc3nnc(C)s3)c2=O)c1 | 3%
CCCCOCN(C(=O)CCl)c1c(CC)cccc1CC | ?
O=C1NC(=O)C2(Cc3ccccc3N3CCOCC32)C(=O)N1c1ccccc1 (stereo not given) | 15%
COC/C=C1\CN2C3C[C@@H]1[C@H]1COC4=Nc5cc(OC)c(OC)c(OC)c5[C@@]43C[C@@H]12 | 2%
COc1cccc(CNCCc2ccc(F)cc2)c1 | -10%
CCOC(=O)c1c(C)n(Cc2ccccc2)c2ccc(OCC(O)CNC(C)(C)C)cc12 (stereo not given) | -15%
Cc1ccccc1CN1CCNCC1 | 29%
Cc1ccccc1-n1c(O)c(C=NCCN2CCOCC2)c(=O)[nH]c1=O | 11%
O=C(NC1CCCCC1)N1C[C@H]2C[C@@H](C1)c1cccc(=O)n1C2 | 2%
CN(C(=O)Cc1ccccc1)[C@H](CN1CCCC1)c1ccccc1 | -1%&-10%
CCCCn1c(O)c(C(C)=NCC2CCCO2)c(=O)[nH]c1=O (stereo not given) | -16%
CC1(C)CC(=O)C(C=NCCN2CCN(C(=O)Cc3ccc(Cl)cc3)CC2)=C(O)C1 | -17%
CN1C[C@H](C(=O)N[C@]2(C)O[C@@]3(O)[C@@H]4CCCN4C(=O)[C@H](Cc4ccccc4)N3C2=O)C=C2c3cccc4[nH]cc(c34)C[C@H]21 | 14µM*
CC(=O)OC(C)(C)/C=C/C(=O)[C@](C)(O)C1[C@H](O)C[C@@]2(C)C3CC=C4C(C[C@H](O)C(=O)C4(C)C)[C@]3(C)C(=O)C[C@]12C (stereo not given in full) | -9%

Ordered by count of non-hydrogen atoms (highest first): some entries from above
SMILES | VDR inh
CN1C[C@H](C(=O)N[C@]2(C)O[C@@]3(O)[C@@H]4CCCN4C(=O)[C@H](Cc4ccccc4)N3C2=O)C=C2c3cccc4[nH]cc(c34)C[C@H]21 | 14µM*
CCOC(=O)c1c(C)n(Cc2ccccc2)c2ccc(OCC(O)CNC(C)(C)C)cc12 (stereo not given) | -15%
CCCCn1c(O)c(C(C)=NCc2ccc3c(c2)OCO3)c(=O)[nH]c1=O | -11%
CCCCOCN(C(=O)CCl)c1c(CC)cccc1CC | ?
C=CCn1c(O)c(/C=N/N2CCCCC2)c(=O)[nH]c1=O | -10%
COc1cccc(CNCCc2ccc(F)cc2)c1 | -10%

Carrying on:
SMILES | VDR inh
Nc1ccc(-c2ccccc2)cc1 | 17%
COc1ccc(CN2CCN(Cc3ccccc3OC)CC2)cc1 | -10%
Fc1ccc(C2=CCN(C(c3ccc(Cl)cc3)c3nnnn3Cc3ccccc3)CC2)cc1 (stereo not given) | 15%
O=[N+]([O-])c1ccc(N2CC2)c([N+](=O)[O-])c1 | 0%
CN(C)CCN=Cc1c(O)n(-c2cccc3ccccc23)c(=O)[nH]c1=O | 12%
CN/C=C(/Cl)P(=O)(OC(C)C)OC(C)C | -14%
CC(=O)OC1C2(CC3N4C(=O)C5(CO)SSC4(CC31O)C(=O)N5C)OC(C)C(C)(C)C2=O (stereo not given) | 40µM*
O=C(Oc1c(Cl)cc(Cl)c2ccccc12)N1CCCCC1 | 0%
Cc1ccc(/C=C2\C(=O)NC(=S)N(c3cccc(F)c3)C2=O)o1 | -9%
CC(=O)OC1(c2ccccc2)CCN(C)C(C)C1C (stereo not given) | 22%
O=C(c1ccc(C(F)(F)F)cc1)C1CCCN(Cc2ccncc2)C1 (stereo not given) | -8%
CNC(=O)Oc1ccc(-c2cn3cc(C)ccc3n2)cc1 | -5%
CC(C)=CCCC1(C)C=Cc2c(O)c3c(c(CC=C(C)C)c2O1)OC12C(=CC4CC1C(C)(C)OC2(C/C=C(/C)C(=O)O)C4O)C3=O (stereo not given) | 2.8µM*
CC(C)C(=O)Nc1nnc(CCN(CCc2nnc(NC(=O)C(C)C)s2)[N+](=O)[O-])s1 | -3%
Cc1ccc(N2C(=O)NC(=O)C(CCc3ccncc3)(Cc3cccc(Cl)c3Cl)C2=O)cc1 (stereo not given) | -11%
O=C1c2ccccc2C(=O)N1Cc1nc2ccccc2c(=O)n1-c1cccnc1 | 1%
CCCCn1c(=O)c(C(=O)Nc2ccccc2C)c(O)c2ccccc21 | -11%
CC(=O)OC1N=C(c2ccc(Cl)cc2)c2cc(Br)ccc2NC1=O (stereo not given) | 1%
COC(=O)C1=C(c2ccc(Cl)c(C(F)(F)F)c2)C[C@@H]2CC[C@H]1N2C(=O)N1CCOCC1 | -14%
CCn1cnc2c(Nc3cccc(Cl)c3)nc(N[C@@H]3CCCC[C@@H]3N)nc21 | 14%
CCNC(=O)NNC(=O)C1CC(c2cccnc2)=NO1 (stereo not given) | -6%
CC1=C(C/C(C)=C/c2ccccc2)/C(=C/CO)[C@@H]2OC(=O)O[C@]2(C)C12CC2 | 6%
Cc1cc(C=C2C(=O)NC(=O)NC2=O)c(C)n1-c1ccncc1 | -28%
Cc1ccc2cc3cc(C(=O)N4CCC5(CC4)OCCO5)oc3nc2c1 | 13%
N/C(=N\[N+](=O)[O-])N1CCN(C(=O)c2ccccn2)CC1 | -14%

Quoted from the entries so far (6 entries):
SMILES | VDR inh
CCOC(=O)c1ccc2[nH]c(-c3ccc(S(=O)(=O)F)cc3)cc(=O)c2c1 | 2%
CCCCn1c(O)c(C(C)=NCc2ccc3c(c2)OCO3)c(=O)[nH]c1=O | -11%
O=c1[nH]c(=O)n(-c2cccc(Cl)c2)c(O)c1C=NCCCN1CCOCC1 | 5%
C=CCn1c(O)c(/C=N/N2CCCCC2)c(=O)[nH]c1=O | -10%
CCN(CC)c1ccc(N=Cc2c(O)n(CCC3=CCCCC3)c(=O)[nH]c2=O)cc1 | -11%
C=CC(=O)OCCO | -1%

Among those listed so far, 2 contain two or more sulfur atoms:
SMILES | VDR inh
CC(=O)OC1C2(CC3N4C(=O)C5(CO)SSC4(CC31O)C(=O)N5C)OC(C)C(C)(C)C2=O (stereo not given) | 40µM*
CC(C)C(=O)Nc1nnc(CCN(CCc2nnc(NC(=O)C(C)C)s2)[N+](=O)[O-])s1 | -3%

(more compounds)
SMILES | VDR inh
CC/C(=N\Nc1ccccc1)c1c(O)n(C)c(=O)n(C)c1=O | -4%
COC(=O)C1=C(c2ccc(-c3ccccc3)c(F)c2)C[C@@H]2CC[C@H]1N2C(=O)NCCO | 12%
COCCOC(=O)C1=C(C)OC(N)=C(C(=O)OC)C12C(=O)Nc1ccccc12 (stereo not given) | -2%
COc1ccc2c3c1OC1C(O)C=CC4C(C2)[N+](C)(C)CCC341 (stereo not given) | -16%
CCC1(CC)C(=O)N(C)C(=O)NC1=NC | -6%
COCCn1c(-c2ccccc2)cc(C(=O)O)c1C | -6%
COc1ccc(CC2c3cc(OC)c(OC)cc3CCN2C)cc1OC (stereo not given) | -29%
Cc1cccc(OP(N)(=O)Oc2cccc(C)c2C)c1C | -23%
Cc1cc(OC(C)C(=O)NCc2cccnc2)c2c3c(c(=O)oc2c1)CCC3 (stereo not given) | -7%
NC(=O)Nc1ccc(C(=O)OCC(=O)Nc2ccc(Cl)cc2C(=O)c2ccccc2)cc1 | 7%
O=C1NC(=O)C2(Cc3cc([N+](=O)[O-])ccc3N3CCN(C(=O)c4ccccc4)CC32)C(=O)N1 (stereo not given) | -10%
O=P(Nc1cccc(Cl)c1)(Oc1ccccc1)Oc1ccccc1 | 7%
N[C@@H](Cc1c[nH]c2ccccc12)c1nnc(SCc2ccccc2F)o1 | 2%
O=C1NC(=O)N(c2ccc(F)cc2)C(=O)/C1=C/c1ccc(N2CCOCC2)cc1 | -25%
CC(CN1CCOCC1)OC(=O)Cc1ccccc1 (stereo not given) | 6%
COC(=O)C1=C(c2c(C)noc2C)C[C@@H]2CC[C@H]1N2C(=O)N1CCC(O)CC1 | -12%
C=C1N2CCC(CC2)C1(O)c1ccc(C)c(C)c1 (stereo not given) | -11%
COc1ccc(OCc2nnc(SCC(=O)NCC3CCCO3)n2N)cc1 (stereo not given) | ?
CC1=C(C(=O)N2CCC3(CC2)OCCO3)C2(CCC(C)CC2)OC1=O (stereo not given) | 7%
COc1ccc2c(c1)NP(=S)(c1ccccc1)N2 (stereo not given) | ?
Cc1ccc2c(c1Cl)NC(C(=O)O)C1CC(Sc3ccccc3[N+](=O)[O-])C(Cl)C21 (stereo not given) | 1%
CCC(N)Cc1c[nH]c2ccccc12 (stereo not given) | -1%&1%
CN(C)CCN=Cc1c(O)n(CCC2=CCCCC2)c(=O)[nH]c1=O | -8%
Cc1cc[n+](Cc2ccccc2)cc1 | -20%
COc1cccc(CN2CCCCC2c2cccnc2)c1 (stereo not given) | 5%
New compounds follow
SMILES | VDR inh
CC(C)[C@@]1(NC(=O)[C@@H]2C[C@@H]3c4cccc5[nH]cc(c45)C[C@H]3N(C)C2)O[C@@]2(O)[C@@H]3CCCN3C(=O)[C@H](Cc3ccccc3)N2C1=O | -9%&-7%
CCCCC/C=C\C/C=C\C/C=C\C/C=C\CCCC(=O)O | 7.9µM*!
CCOc1cc2c(cc1OCC)-n1cccc1C(c1ccccc1F)NC2 (stereo not given) | 12%
CCC(C)C12CN3CCN(CC(C)(C3)C1=O)C2 (stereo not given) | 1%
CP(C)(=O)CCC(=O)O | -10%
COc1ccc(NC2(C#N)CCCCC2)cc1 | -7%
COC(=O)C1=C(c2cccc(OCc3ccccc3)c2)C[C@@H]2CC[C@H]1N2C(=O)NCc1ccc(C(F)(F)F)cc1 | 2%
N#Cc1ccc(NC(=O)CN2CCN(C(=O)c3cccs3)CC2)cc1Cl | 5%
CCn1ccnc1CN1CCCC(C(=O)c2cc(Cl)ccc2OC)C1 (stereo not given) | 1%
O=c1[nH]c(=O)n(Cc2ccc(F)cc2)c(O)c1/C=N/Nc1ccccc1 | -7%
Nc1ccc(Cc2ccc(N)c(Cl)c2)cc1Cl | -4%
COC1=CC(=O)[C@]2(C=C1OC)OC[C@@H]1Oc3c(ccc4c3C=CC(C)(C)O4)C(=O)[C@@H]12 | -6%
Cc1ccc(Cn2cc(C=O)c(-c3ccc(F)cc3)n2)cc1 | -19%
O=C(COc1ccc(Cl)cc1)Nc1ccc(Cl)cc1C(=O)c1ccccc1 | -7%
Cc1ccc(C2=NN(CCC(=O)N3CCC4(CC3)OCCO4)C(=O)CC2)cc1 | -4%
Cc1noc(C)c1CSCC(=O)Nc1ccc(C#N)c(Cl)c1 | 5%
CCOC(=O)C(=O)NC1CCSC1=O (stereo not given) | 12%
C#CC[N+]1(C)[C@@H]2CC(OC(=O)C(CO)c3ccccc3)C[C@H]1C(O)C2 (stereo not given in full) | -12%
CN=C(SCC(=O)c1cccc(Cl)c1)c1c(O)n(C)c(=O)n(C)c1=O | 29%
C=CCOc1ccc(CC2C(=O)N(C)C(=O)N(C)C2=O)cc1 | -10%
COc1cc2c(C(=O)O)c(C)n(C)c2cc1Br | 9%
Cc1c(C(=O)Nc2ccccc2)cc(-c2ccccc2)n1CCCN1CCOCC1 | -3%
Cc1ccc(-c2nc3ccccc3c(=O)n2-c2ccccn2)cc1 | 4%
CCn1c(C)cc(/C=C2\C(=O)NC(=O)N(c3ccccc3C)C2=O)c1C | 6%
COC(=O)C1=C(c2c(C)noc2C)C[C@@H]2CC[C@H]1N2C(=O)N1CCC(C)CC1 | -17%
Next structures
SMILES | VDR inh
CCC1C2CC3C4N(C)c5ccccc5[C@]45CC(C2C5O)N3C1O (stereo not given in full) | 4%
Cc1nc(C)c(C(=O)NN=Cc2ccc(N(CCCl)CCCl)cc2)s1 | -18%
COc1cc2c(cc1OC)C(C1c3cc4c(cc3CCN1C)OCO4)OC2=O (stereo not given) | -10%
Cc1ccc(-n2c(O)c(C=NCCC3=CCCCC3)c(=O)[nH]c2=O)cc1 | -9%
Cc1nc2c(-c3ccccc3)c(C)nn2c(C)c1CCC(=O)N1CCC2(CC1)OCCO2 | -16%
Clc1ccccc1C1=NCc2nncn2-c2sc(Br)cc21 | -2%
O=C1NC(=O)C2(CCCc3ccc(N(CCCl)CCCl)cc32)N1 (stereo not given) | 4%
COc1ccc(C(CNC(=O)CCc2ccsc2)N(C)C)cc1 (stereo not given) | -11%
C=CCn1c(O)c(C(C)=NCCN2CCCCC2)c(=O)[nH]c1=O | 1%
COP(=O)(NC(C)=O)SC (stereo not given) | 6%
Clc1ccccc1-c1cncnc1NCCc1cnc[nH]1 | -20%
Cc1nc2c(c(C)nn2-c2ccccc2)c(C)c1CCC(=O)N1CCC2(CC1)OCCO2 | -4%
CCOC(=O)C1(CCc2ccccc2)CCN(Cc2csc(C(C)=O)c2)CC1 | 0%
CC1CN(c2ccc([N+](=O)[O-])c3cccnc23)CC(C)N1 (stereo not given) | 6%
FC(F)(F)c1ccc2c(c1)N(CCCN1CCN(CCCl)CC1)c1ccccc1S2 | -2%
Cc1ccccc1CC(=O)N(CCN(C)C)CC1CCCN(Cc2ccccc2F)C1 (stereo not given) | -2%
CC(=O)NCC(=O)Nc1ccc(Br)cc1C(=O)c1ccccc1 | -17%
Cn1c(O)c(C2=NN(C(=O)CCl)C(c3ccccc3)C2)c(=O)n(C)c1=O (stereo not given) | -7%
Cc1cc2oc(=O)cc(-c3ccccc3)c2c(C)c1-c1ccc(CO)cc1 | ?
CC1(C)C(c2ccccc2)=NC(c2cccnc2)N1O (stereo not given) | 10%
